# ClpP mod: qHTS Assay for Activators of ClpP. ATP-dependent Clp protease proteolytic subunit (Bacillus subtilis (strain 168)), P80244. purified B. subtilis ClpP, FRET peptide cleavage, 20 min. Potency, µM (titrated, usually from 57.5 µM), for the others: top-dose activity change, negative = active. 340,000 tested, 1.9% active; active = well fitted falling curve with a large enough effect; inconclusive = small, poorly fitted or top-dose-only effect; inactive = no such curve, though single readings can be large or run the other way; also: potency is read from the fitted curve at half-maximal effect; the source files actives as falling curves though it sought activators and does not explain the sign; nearly all actives have a fitted effect of over 65% in size; many hits overshoot -100%
# Target sequence (P80244 whole entry, looked up): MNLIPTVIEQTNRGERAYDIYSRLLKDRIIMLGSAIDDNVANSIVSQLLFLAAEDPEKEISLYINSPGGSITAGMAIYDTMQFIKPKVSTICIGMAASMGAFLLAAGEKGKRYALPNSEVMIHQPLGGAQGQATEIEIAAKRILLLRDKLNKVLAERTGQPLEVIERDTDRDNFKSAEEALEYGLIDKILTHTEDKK
#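 Buffer: 100 mM Tris/HCl pH8, 100 mM KCl, 0.05% low protease BSA, 2.5% glycerol, 0.01% Tween-20. ClpP 10 microg/mL final; 20 min RT; delta FRET normalized to ADEP and DMSO controls.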
# PINK1 modulator: A Quantitative High throughput Screen to Identify Chemical Modulators of PINK1 Expression | PINK1 immunofluorescence, high-content cytometry, 24 h | Potency, µM (titrated, usually from 76.6 µM), for inactives: top-dose activation (PINK1 increase), most hits filed as activators | 410,000 tested, 0.2% active | AID 624263, 2012; active = well fitted activation curve with a large enough effect; inconclusive = small, poorly fitted or top-dose-only effect; inactive = flat fitted curve, though single readings scatter; cell line not stated here;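 also: potency is read from the fitted curve at half-maximal effect; % of control where 0% means no effect; nearly all actives have a fitted effect of over 65% in size; a mitochondrial uncoupler was the plate control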
#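 Cells are seeded, rested 12 hours, then given compound at five concentrations or DMSO for 24 hours. After fixation, blocking and antibody staining, PINK1 amount and mitochondrial localization are scored; CCCP serves as control.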
# TRPV1 potentiator: HTS Assay for Compounds that Act as Potentiators of the Vanilloid Receptor 1 | potentiation, % at 8.33 µM | AID 540277, 2011 | Transient receptor potential cation channel subfamily V member 1 (Homo sapiens), Q8NER1 | 320,000 tested, 0.02% active | TRPV1-expressing cells, Fluo-8 calcium influx, capsaicin EC20 potentiation; host cell line not named in the record; control for the full effect not named in the record; active means potentiation above 80%; inconclusive means 30% to 80%; inactive means below 30%; also: 0% is about no effect
#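 Cells expressing TRPV1 were dye-loaded with Fluo-8 and read kinetically: 10 s baseline, 3 min after compound (agonist portion), then 2 min after EC20 capsaicin (allosteric enhancer portion). Calcium-bound dye fluorescence at 480/520 nm.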
# Sfp inh: qHTS Assay for Inhibitors of Bacillus subtilis Sfp phosphopantetheinyl transferase (PPTase); Biochemical Sfp PPTase activity, qHTS; 310,000 tested, 3.5% active; Potency, µM, for inactives: max response, negative = inhibition, usual class: inhibitors; 4'-phosphopantetheinyl transferase ffp (Bacillus subtilis), Q9F4F7; active = well fitted inhibition curve with a large enough effect; inconclusive = small, poorly fitted or top-dose-only effect, or another doubt; inactive = no such curve, though single readings can be large or run the other way;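 also: the enzyme is Sfp with the accession as filed and its product quenches rhodamine fluorescence; potency is read from the fitted curve at half-maximal effect; 0% = enzyme reaction without inhibitor and -100% = no enzyme wells; top concentration of the series not given in the record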
#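 Reaction rates are the 30-min fluorescence difference (ex 525, em 598 nm) in wells containing 15 nM Sfp, 5 uM rhodamine-CoA and 12.5 uM BHQ-2-YbbR at pH 7.6 with 10 mM MgCl2.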
# TRPML1 inh: qHTS for Inhibitors of the Human Mucolipin Transient Receptor Potential 1 (TRPML1) | TRPML1-inducible cells, Ca2+ dye fluorescence, FDSS; hits give low values; inhibition of EC80 agonist-evoked calcium signal | 390,000 tested, 0.02% active | activity change, negative = inhibition, % (no concentration beside the values) | Mucolipin-1 (Homo sapiens), Q9GZU1; in the data active means activity change below about -50%; inconclusive means about -30% to -50%; inactive means above about -30%;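 also: stimulus is agonist 54-4 at its EC80 concentration; % is scaled to controls: 0 for no effect and ±100 for the full control effect; compound concentration not given in the record; the text of the record puts the active cut at -80%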
# Target sequence (Q9GZU1 whole entry, looked up): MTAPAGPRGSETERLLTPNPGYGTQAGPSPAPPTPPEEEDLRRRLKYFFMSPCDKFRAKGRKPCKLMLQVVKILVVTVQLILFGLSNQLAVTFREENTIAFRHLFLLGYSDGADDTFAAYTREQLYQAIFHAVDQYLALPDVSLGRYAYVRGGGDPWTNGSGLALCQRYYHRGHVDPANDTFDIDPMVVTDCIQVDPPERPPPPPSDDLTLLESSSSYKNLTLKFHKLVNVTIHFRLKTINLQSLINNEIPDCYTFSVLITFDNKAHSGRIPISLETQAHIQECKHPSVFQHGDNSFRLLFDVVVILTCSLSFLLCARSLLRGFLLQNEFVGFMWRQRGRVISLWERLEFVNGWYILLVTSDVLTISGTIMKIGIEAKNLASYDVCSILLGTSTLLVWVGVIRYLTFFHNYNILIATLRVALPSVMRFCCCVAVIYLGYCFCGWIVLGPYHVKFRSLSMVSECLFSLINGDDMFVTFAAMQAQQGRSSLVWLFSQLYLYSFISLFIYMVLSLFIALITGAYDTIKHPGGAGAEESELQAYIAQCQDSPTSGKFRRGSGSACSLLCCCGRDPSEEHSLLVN
#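 Calcium fluorescence in TRPML1-DL cells induced overnight with Tet: a 110 s read after compound pin addition, then a 110 s antagonist read after challenge with 54-4 at 4 uM final (EC80).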
# Menin-MLL FL inh: qHTS Assay for Inhibitors Targeting the Menin-MLL Interaction in MLL Related Leukemias: Competition With Fluorescein Labeled MLL-derived Peptide. FP activity change, % at 61.4 µM. Fluorescence polarization, fluorescein-MLL peptide displacement from menin. 290,000 tested, under 10 active; inconclusive = falling polarisation curve, or a change in total fluorescence; inactive = total fluorescence flat and polarisation flat or rising; no compound was filed as active; the % refers to the polarisation; negative = inhibition;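 also: % of control where 0% means no effect; inhibitors lower the polarisation; unlabelled MLL peptide was the positive control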
# TRPML1 ag: qHTS for Agonists of the Human Mucolipin Transient Receptor Potential 1 (TRPML1); activation, % (no concentration beside the values); AID 624414, 2012; TRPML1-expressing cells, Ca2+ dye fluorescence, FDSS; host cell line not named in the record; reference of the full effect not given here; Mucolipin-1 (Homo sapiens), Q9GZU1; 410,000 tested, 0.12% active; in the data active = activation above about 50%; inconclusive = about 30% to 50%; inactive = below about 30%; also: 0% is about no effect; the text of the record puts the active cut at 80%
#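 Tetracycline-induced TRPML1-DL cells are seeded and incubated overnight before loading with a no-wash Ca2+ dye and quencher. Agonist activity is taken from the 110 s fluorescence read following compound pin-transfer on an FDSS, before EC80 54-4 challenge.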
# * hit, by the source's call; ? = inconclusive; · = no result given; [ ] = dose if it differs, or a comment. An unsorted share of the library. Share with any hit: about 4.4%.
SMILES,ClpP mod,PINK1 modulator,TRPV1 potentiator,Sfp inh,TRPML1 inh,Menin-MLL FL inh,TRPML1 ag
O=C(Nc1ccc(Cl)cn1)c1ccc(COCC(F)(F)C(F)F)o1,0.6%,21.3%[38.3 µM],-7.2,-2.3%,10.5,2.7,1.2
O=C(COc1ccc2ccccc2c1Br)Nc1ncn[nH]1,2.7%,3.1%[38.3 µM],-3.0,10.6%,3.2,2.2,0.5
CCCNC(=O)COc1coc(CN2CCN(c3ccc(F)cc3)CC2)cc1=O,0.3%,-0.8%,4.9,5.0%,-3.0,·,-0.1
Cc1cc(Br)ccc1NC(=O)c1ccccc1-c1ccccc1,0.7%,5.7%,25.4,7.5%,25.6,2.8,2.4
COc1cc2nc(C)sc2cc1SC,-15.7%,0.5%,-8.8,-9.5%,-6.6,8.3,2.2
O=S(=O)(Nc1cccc(-c2nc3cccnc3s2)c1)c1ccc2c(c1)OCCO2,-11.7%,0.2%,-3.1,11.0%,-11.2,3.2,1.8
Cc1nnsc1C(=O)Nc1ccc(S(=O)(=O)N2CCCCC2)cc1,-1.4%,2.6%,-15.3,-2.2%,2.2,5.1,0.1
CCOC(=O)CN(C(=O)CSc1nnc2c(n1)[nH]c1ccc(F)cc12)c1ccccc1,0.0%,-0.8%,-18.0,12.0%,-11.5,0.0,-1.5
CCn1ccc2c(OCC(=O)NCc3ccccc3)cccc2c1=O,-19.2%,-1.1%,·,·,8.4,·,0.2
CCCn1c(SCC(=O)N2N=C3/C(=C/c4ccc(OC)cc4)CCCC3C2c2ccc(OC)cc2)n[nH]c1=O (centres undefined),-1.7%,-1.5%,0.8,-20.7%,-17.8,8.7,6.4
CCC(=O)N1N=C(c2cccs2)CC1c1ccco1 (centres undefined),·,-0.8%,-4.8,3.6%,44.6,0.6,1.2
CCOC(=O)C(C(=O)N1CCOCC1)C1CCCCC1 (centres undefined),-1.2%,3.1%[38.3 µM],-14.8,16.8%,-9.7,-2.0,0.1
Cc1[nH]c2ccccc2c1C(=O)Cn1c(=O)oc2ccccc21,-2.1%,0.5%[38.3 µM],8.5,4.0%,-10.0,5.6,0.9
COCCN(C(=O)CSc1nnc(-c2cccc(OC)c2)n1C)c1c(N)n(Cc2ccccc2)c(=O)[nH]c1=O,·,·,-6.2,18.0%,·,0.0,·
Cc1cc(C)c(C#N)c(Oc2ccccc2Br)n1,-9.7%,9.0%,?,1.4%,9.6,4.9,1.4
C=CCn1c(SCC(=O)c2ccc(NS(=O)(=O)c3ccccc3)cc2)nnc1-c1cccs1,-17.6%,-0.2%[38.3 µM],8.0,-18.6%,-2.2,1.2,0.3
CC(C)C(=O)Nc1ccc(NC(=S)NC(=O)c2ccc([N+](=O)[O-])cc2)cc1,1.3%,15.4%[38.3 µM],-7.7,-0.8%,2.0,5.2,0.0
CCN(CC)c1ccc(CNc2nnnn2C)cc1,·,0.2%,-36.0,4.3%,4.5,4.8,-0.1
COc1ccc(N2CCN(C(=O)c3ccc(CS(=O)c4cccc(Cl)c4)o3)CC2)cc1 (centres undefined),1.8%,10.8%,·,·,-11.5,·,-0.7
COc1cccc(Cn2c(=O)c(-c3ccc(F)cc3)nc3cncnc32)c1,·,1.9%,·,-8.1%,·,1.5,·
COC(=O)c1ccc(NC(=O)c2cc(S(=O)(=O)N3CCC(C)CC3)cn2C)cc1,4.2%,8.1%,·,·,-2.5,·,4.9
O=C(NNC(=S)NCc1ccco1)c1ccc(S(=O)(=O)N2CCOCC2)cc1,·,4.5%,-2.4,2.1%,-7.3,2.2,-0.2
CCOc1cc(C2C(C#N)=C(N)Oc3n[nH]c(C)c32)ccc1OCCN1CCOCC1 (centres undefined),-1.2%,2.0%,4.0,-7.8%,4.7,1.5,-0.9
OC(c1cccc(F)c1)c1ncc(-c2ccc(Oc3ccccc3)cc2)[nH]1 (centres undefined),0.7%,21.1%,·,·,·,·,-0.6
CCOC(=O)N1CCN(C(=O)CSC2=NS(=O)(=O)c3cc(Cl)ccc3N2)CC1,-0.9%,-0.3%,8.1,·,-18.9,·,0.7
CC/C(=N\NC(=O)CSCc1ccccc1Br)c1ccc2c(c1)OCCO2,0.8%,9.2%,3.8,-0.9%,5.3,3.3,-1.4
NS(=O)(=O)c1ccc(NC(=O)c2cc(Cl)sc2Cl)cc1,-24.5%,0.9%,-25.4,17.6%,4.4,·,0.3
CCOc1ccc(CNC(=O)c2ccc3c(c2)sc2nc(-c4ccc(OC)cc4)cn23)cc1,?,0.9%,·,·,-19.9,·,2.0
Cc1ccc2nc(-c3ccccc3)c(CN3CCSCC3)n2c1,·,2.6%,-5.4,6.7%,-6.5,1.3,0.6
CC(=O)Nc1ccc2nc(N)sc2c1,-1.2%,0.9%,·,·,8.5,·,0.4
N#Cc1nc(Cc2ccccc2)oc1NCc1ccccc1Cl,-2.9%,-0.4%,-7.0,-9.8%,57.3,-3.4,-0.1
COc1cc(C2Nc3cccc4cccc(c34)N2)ccc1OC(C)=O,-1.3%,0.8%,0.3,-29.8%,6.5,?,0.6
CCn1c(SCC(=O)NC)nnc1C(C)C,-0.1%,-0.9%,8.0,11.3%,15.3,-0.1,0.0
CC1(C)C(=O)N(CC(=O)Nc2ccc(OC(F)(F)F)cc2)c2ccccc21,1.8%,?,·,·,-5.4,·,0.4
CC1CCC(NC(=O)c2ccc3c(c2)N(Cc2ccccc2)C(=O)c2ccccc2S3(=O)=O)CC1 (centres undefined),-5.5%,-0.3%,·,·,-4.2,·,3.2
O=C(NCCc1ccccc1)C(=O)N/N=C/c1ccc2c(c1)OCO2,-4.2%,6.7%,10.5,17.9%,17.2,1.0,-0.2
O=C(CCc1nc(-c2ccccc2)no1)NC1CCCCC1,0.6%,-1.7%[38.3 µM],-7.3,-10.1%,-16.9,2.4,-0.5
O=C(O)/C=C/c1ccc(S(=O)(=O)Nc2ccc(C(=O)NCC(=O)O)cc2)cc1,·,2.6%,3.5,23.5%,2.4,-1.4,-0.9
COc1cc(C2Nc3ccccc3C(=O)N2c2ccc(Cl)cc2)c(Cl)cc1OCC(=O)O (centres undefined),28.2µM*,-0.8%,-2.5,13.4%,-3.9,-0.3,-0.6
COc1ccc2c(C(=O)c3ccc(C)cc3)n(Cc3ccc(C(N)=O)cc3)[n+]([O-])c2c1,-26.9%,0.6%,-22.5,·,5.2,·,2.0
CN1CCc2c(C#N)c(N3CCOCC3)nc(NCC3CCCO3)c2C1 (centres undefined),-10.1%,-1.4%,-2.9,-7.9%,7.1,4.2,0.9
O=C(OCCN1C(=O)c2ccccc2C1=O)C1CCN(S(=O)(=O)c2cccs2)CC1,0.2%,2.7%[38.3 µM],13.8,3.9%,-5.6,-2.0,0.0
O=C1c2ccccc2C(=O)N1CCCCNc1ccccc1,-9.2%,1.4%,·,·,31.5,·,0.0
CCOC(=O)C1CCCN(C(=O)c2ccc(C)c([N+](=O)[O-])c2)C1 (centres undefined),2.2%,2.1%,-0.2,0.8%,-5.2,0.0,-0.8
COc1ccc(NC(C)=O)cc1S(=O)(=O)Nc1cccc(S(=O)(=O)NC2=NCCC2)c1,0.8%,0.3%,-52.1,·,-1.4,·,1.4
CC(C)c1ccccc1OCCNS(C)(=O)=O,-19.0%,-0.5%,-12.9,-5.4%,-1.5,1.2,-0.1
CCOC(=O)c1c(C)[nH]c(C(=O)COC(=O)[C@H](C)NC(=O)c2ccccc2Cl)c1C,-8.9%,-1.5%,-5.0,0.8%,10.1,6.2,-0.3
CCc1ccc2nc3sc(C(=O)Nc4nnc(CC)s4)c(N)c3cc2c1,0.3%,9.7%[38.3 µM],1.0,?,-7.2,?,11.5
CN(C)S(=O)(=O)c1ccc(NC(=O)CSc2nc3ccccc3n2-c2ccccc2)cc1,-1.9%,-2.0%,10.7,19.0%,32.7,13.1,0.5
CC(=O)Nc1ccc(Sc2ncccc2C(=O)Nc2cc(Cl)cc(Cl)c2)cn1,1.1%,?,7.8,-27.4%,4.5,-1.4,12.3
CC1CCCC(NC(=O)CCC(=O)N2CCOc3ccccc32)C1C (centres undefined),-3.1%,0.6%,17.3,5.6%,9.9,·,0.6
NC(=O)C(=O)NCCCN1CCOCC1,·,0.3%,12.2,9.5%,6.5,-4.1,-0.2
Cc1cccc(Nc2ccccc2C(=O)OCC(=O)N(C)C2CCS(=O)(=O)C2)c1C (centres undefined),-2.0%,2.0%[38.3 µM],-5.7,0.6%,-3.7,-1.5,0.2
CCc1cc(C(=O)NNC(=S)NC2CCCCC2)cs1,4.0%,0.2%,-7.4,21.4%,10.4,·,-0.8
CC(=O)C(Cc1ccccc1)NC(=O)COC(=O)c1cc(S(=O)(=O)N2CCOCC2)ccc1F (centres undefined),-4.5%,1.0%,·,·,-10.9,·,-0.8
CCN1C[C@@H]2[C@@H]3C(=O)N(C)C(=O)[C@@H]3[C@](C)(C1=O)N2C(=O)c1ccc(C)cc1,-1.2%,-1.8%,·,·,-1.3,·,-1.1
Fc1ccc(NCc2cccnc2)cc1F,-4.4%,4.7%[38.3 µM],-9.7,-11.4%,41.7,?,-0.4
CCOC(=O)c1ccc(NC(=O)N2CCN(C3CCCCC3)CC2)cc1,-2.7%,-4.9%[38.3 µM],-15.9,-0.9%,26.3,-0.2,0.4
O=C(CCCC(=O)NC1CCCC1)NC1CCCC1,-3.4%,-0.4%,3.0,4.5%,-22.2,9.1,0.2
O=C(Nc1ccc2oc(-c3ccncc3)nc2c1)c1ccc2c(c1)OCO2,-2.9%,?,4.9,-12.0%,36.6,0.4,-0.7

# Part of the list above in order of molecular weight, falling.
SMILES,ClpP mod,PINK1 modulator,TRPV1 potentiator,Sfp inh,TRPML1 inh,Menin-MLL FL inh,TRPML1 ag
O=C(Nc1ccc2oc(-c3ccncc3)nc2c1)c1ccc2c(c1)OCO2,-2.9%,?,4.9,-12.0%,36.6,0.4,-0.7
CCc1cc(C(=O)NNC(=S)NC2CCCCC2)cs1,4.0%,0.2%,-7.4,21.4%,10.4,·,-0.8
NC(=O)C(=O)NCCCN1CCOCC1,·,0.3%,12.2,9.5%,6.5,-4.1,-0.2
